GIV-Gai inh: inhibitors of GIV peptide binding to Galpha-i3, primary screen, biochemical, fluorescence polarization, FITC-GIV GBA peptide, rat Galphai3; Guanine nucleotide-binding protein G(i) subunit alpha-3 (Rattus norvegicus), P08753; 90 min; stronger effect = lower value; scaled: aluminum fluoride 0%, vehicle 100%; percent of control (FP), % (concentration not given with the values); actives 0.42% (n = 210,000); AID 1224905, 2016;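 active means replicate mean at 85% of control or lower, very high polarization wells dropped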;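 further: wells of about 15 µL received 100 nL stock; the first replicate is given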
Target sequence (P08753 whole entry, looked up): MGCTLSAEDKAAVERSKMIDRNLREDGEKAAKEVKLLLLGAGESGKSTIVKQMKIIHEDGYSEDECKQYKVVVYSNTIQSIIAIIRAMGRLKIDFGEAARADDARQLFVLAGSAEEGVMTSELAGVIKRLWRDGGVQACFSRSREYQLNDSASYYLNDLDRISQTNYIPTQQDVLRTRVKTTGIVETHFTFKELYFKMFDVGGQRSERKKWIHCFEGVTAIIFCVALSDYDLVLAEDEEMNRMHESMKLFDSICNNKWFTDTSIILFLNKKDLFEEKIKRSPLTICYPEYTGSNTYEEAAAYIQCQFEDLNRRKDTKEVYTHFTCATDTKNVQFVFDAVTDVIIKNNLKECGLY
HCMV NEC inh: inhibitors of HCMV UL50-UL53 interaction, biochemical, HTRF. normalized percent inhibition. actives 0.15% (n = 190,000). inhibition, % (concentration not given with the values);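 active means both replicates at 50% or more, plus weaker picks with an unusually low signal ratio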;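 further: stock transfer was 100 nL into about 20 µL; 0% = negative control wells and 100% = wells with untagged competitor protein; inactives centre near -12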
Sa growth inh: S. aureus growth inhibition at 42 and 30 °C, primary screen, LtaS inhibitor project, RN4220, two temperatures. OD600, 20 h, 42 °C; stronger effect = lower value. relative growth, % (concentration not given with the values). actives 0.53% (n = 170,000);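 active means growth at 42 °C up to 50% and 20 or more points under that at 30 °C, or under 10% at both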;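 further: 300 nL library stock went into each well; scaled to the means of positive and negative controls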
Sa growth inh second temp: further read-out of Sa growth inh, marked with its call; relative growth, %; measured here: growth at 30 °C;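 optical density after 20 h as mean of two plates; 100% = untreated growth and lower means inhibition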
* hit, by the source's call; nt = no result given; & = joins results of further samples. Rows are unselected. Share with any hit: about 0.85%.

SMILES	GIV-Gai inh	HCMV NEC inh	Sa growth inh	Sa growth inh second temp
Cc1cc(C)cc(N2CCn3c2nc2c3c(=O)n(Cc3c(F)cccc3Cl)c(=O)n2C)c1	99	nt	117	98
O=C(C1CCCC1)N1CCC(c2nc(-c3ccc(F)cc3)no2)CC1	99	-2	nt	nt
O=C(Cc1c(C(=O)O)[nH]c2ccc(Cl)cc12)NCC1COc2ccccc2O1 (stereo not given)	95	nt	105	69
CC1(C(=O)O)Sc2[nH]c(=O)sc2C2c3ccccc3OC(=O)C21 (stereo not given)	nt	-36	94	87
COc1cc(-c2nnc(SCc3nc4ccccc4s3)o2)cc(OC)c1OC	nt	-16	88	96
CC(=O)Nc1c2n(c3ccc(F)cc13)CC(C)(C(=O)NC1CCCCC1)N(C(C)C)C2=O (stereo not given)	100	-29	nt	nt
O=C(O)C1C2CCC(CC2)C1C(=O)N1CCN(S(=O)(=O)c2ccc(F)cc2)CC1 (stereo not given)	101	-15	105	89
COc1ccc(-c2noc(-c3nnn(-c4cccc(OC)c4)c3N)n2)cc1	96	2	nt	nt
O=C(Nc1ccc(F)c(Cl)c1)c1ccc(Nc2ccnc(-c3ccc(F)cc3)n2)cc1	104	10	nt	nt
Cc1cc(=O)oc2cc(NC(=S)N3CCCC3)ccc12	107	-18	125	92
C=CCn1c(CSc2nnc(-c3ccccc3)n2C)n[nH]c1=S	100	-39	91	88
O=S(=O)(c1cccc(-c2nnc(Sc3ncnc4sc5c(c34)CCC5)o2)c1)N1CCCCC1	nt	7	101	93
Cc1ccccc1N1C(=O)N(c2ccccc2)C2CS(=O)(=O)CC21 (stereo not given)	99	-7	nt	nt
CCOc1ccccc1NC(=O)c1cc2c(=O)n(Cc3cccnc3)ccc2nc1C	98	nt	84	86
OC(CNCc1ccc(OC(F)(F)F)cc1)C(F)(F)F (stereo not given)	101	-11	nt	nt
CCc1ccc2c(-c3cccc(Cl)c3)nc(=O)n(CC)c2n1	103	-54&-71	nt	nt
N#Cc1ccc(COc2cnnc3ccccc23)cc1	nt	-91	87	88
CCCC(=O)Nc1ccc2c(c1)nc(CCNC(C)=O)n2C	100	-1	nt	nt
COCc1cc(C)nc(OCC2=NN(C(C)=O)C(c3cccc(OC)c3)O2)c1C#N (stereo not given)	97	-28	91	91
CC(C)CN(CC(C)C)C(=O)c1cc2c(Cl)nc3ccccc3c2s1	103	nt	96	91

Looked up above:
CC(=O)Nc1c2n(c3ccc(F)cc13)CC(C)(C(=O)NC1CCCCC1)N(C(C)C)C2=O (stereo not given) in GIV-Gai inh has 100
Cc1ccccc1N1C(=O)N(c2ccccc2)C2CS(=O)(=O)CC21 (stereo not given) in GIV-Gai inh has 99

Grouped by structure: the entries above with an aryl thioether with sulfur outside any ring (3)
SMILES	GIV-Gai inh	HCMV NEC inh	Sa growth inh	Sa growth inh second temp
COc1cc(-c2nnc(SCc3nc4ccccc4s3)o2)cc(OC)c1OC	nt	-16	88	96
C=CCn1c(CSc2nnc(-c3ccccc3)n2C)n[nH]c1=S	100	-39	91	88
O=S(=O)(c1cccc(-c2nnc(Sc3ncnc4sc5c(c34)CCC5)o2)c1)N1CCCCC1	nt	7	101	93

The list continues.
SMILES	GIV-Gai inh	HCMV NEC inh	Sa growth inh	Sa growth inh second temp
COC(=O)Cc1nc(C)cs1	nt	-22	76	94
COc1ccc(CCC(=O)NNc2ccccc2)cc1	nt	7	103	102
O=C(Cn1c(=O)oc2cc(S(=O)(=O)NCc3ccccc3)ccc21)NC1CCCCC1	106	nt	95	94
Cc1ccc2nc(-c3ccc(N4CCOCC4)cc3)c(Nc3ccccc3C)n2c1	99	-7	110	77
CCOC(=O)c1c(-c2ccc(C)cc2)csc1NC(=O)c1cc(=O)c2ccc(C)cc2o1	108	18	94	96
CN(C)c1nc(N)nc(Cn2ccnc2)n1	nt	-8	102	95
O=C(c1cnn(-c2cccc(F)c2)c1-n1cccc1)N1CCc2ccccc21	100	6	92	88
Cc1cc(SCC(=O)Nc2nsc(-c3ccc(C(C)(C)C)cc3)n2)nc2ccccc12	102	-18	108	94
Cc1cc(C)c(-n2c(SCc3nc4ccccc4s3)n[nH]c2=O)c(C)c1	104	3	92	67
CC(OC(=O)c1cccc2ccccc12)C(N)=O (stereo not given)	nt	-43	96	88
CCc1ccc(CN(Cc2cn[nH]c2-c2ccc(OC)cc2)C(=O)Nc2ccc(C)cc2C)cc1	102	nt	70	54
Cc1cc(-c2cc(S(=O)(=O)NCc3ccc(C)o3)c(C)s2)on1	100	-34	nt	nt
Nn1c(Cc2ccccc2)nnc1SCC(=O)Nc1ccccc1F	108	-13	110	91
CN(CC(=O)N1CCCC1)S(=O)(=O)c1ccc2c(c1)c(=O)n(C)c(=O)n2C	105	-25	103	84
Cc1oc2c(cc(NS(=O)(=O)c3cc(Cl)ccc3Cl)c3ccccc32)c1C(=O)OC(C)C	107	-11	nt	nt
O=C(CC1CCN(C(=O)C2CCCCC2)CC1)NC1CCCC1	95	-28	nt	nt
Cc1ccc(NC(=O)N2CC=C(c3c[nH]c4ccccc34)CC2)cc1	127	-44	100	73
NC(=O)c1cc2ccccc2oc1=Nc1ccccc1	101	nt	88	92
CCCNC(=O)c1cccc(Oc2ccccc2)c1	104	-30	91	94
Nc1c(C(=O)N2CCCCC2)sc(=S)n1Cc1ccccc1	106	-12	nt	nt

3 neighbouring entries out of the list so far, for reference:
SMILES	GIV-Gai inh	HCMV NEC inh	Sa growth inh	Sa growth inh second temp
COC(=O)Cc1nc(C)cs1	nt	-22	76	94
COc1ccc(CCC(=O)NNc2ccccc2)cc1	nt	7	103	102
O=C(Cn1c(=O)oc2cc(S(=O)(=O)NCc3ccccc3)ccc21)NC1CCCCC1	106	nt	95	94

Further results:
SMILES	GIV-Gai inh	HCMV NEC inh	Sa growth inh	Sa growth inh second temp
O=C(CN1C(=O)C2CCCCN2c2ccc(S(=O)(=O)N3CCCCC3)cc21)NCc1ccccc1 (stereo not given)	103	7	nt	nt
CNS(=O)(=O)c1ccc(C(=O)NCC(=O)N2CCCC2c2ccc3c(c2)OCCCO3)cc1 (stereo not given)	nt	11	100	82
Cc1ccc(-c2noc(CN(C(=O)C(c3ccccc3)c3ccccc3)C(C)C)n2)cc1	98	nt	98	92
Cc1oc2ncn3nc(COc4cccc(Cl)c4)nc3c2c1C	109	80	nt	nt
O=c1[nH]c2ccc(NCc3ccc(Cl)cc3)cc2[nH]1	99&99	-12	93	86
CSc1ncc(C(=O)NCCN(C)C)c(-c2ccccc2)n1	106	-29	110	91
Cc1ccc(NNC(=O)c2c(-c3ccccc3)noc2C)cc1C	106	-15	98	79
COc1cc(/C=C2\C(=O)N(c3ccc(S(N)(=O)=O)cc3)N=C2C)cc(Br)c1OCc1ccccc1	66*	46*	nt	nt
Cc1nnc(Nc2ccc(C(=O)N3CCCCC3)cc2)c2ccccc12	103	-56	87	87
COc1ccc2c(c1)c(=O)c(S(=O)(=O)c1ccccc1)cn2CC(=O)Nc1ccc(C)c(Cl)c1	104	-39	103	89
CCc1ccccc1NC(=S)N(CCN(C)C)Cc1cccs1	101	nt	120	90
COC(=O)c1cccc(NC(=O)Nc2cc(NC(=O)c3ccccc3Cl)ccc2N2CCCCC2)c1	103	-6	nt	nt
S=C(NC1CCCCC1)N1CCn2cccc2C1c1cccs1 (stereo not given)	103	nt	116	82
Cn1c(=O)c(N2CCC(C(=O)NCc3ccccc3Cl)CC2)nc2ccccc21	96	10	nt	nt
CN1CCC[C@@H]1Cc1c[nH]c2ccc(CCS(=O)(=O)c3ccccc3)cc12	103	-13&3	nt	nt
CC(=O)c1ccc(N2CCN(S(=O)(=O)c3ccc(-c4cnc(C5CC5)o4)cc3)CC2)cc1	98	nt	91	86
COc1ccc(N(C)c2ncnc3onc(-c4ccc(Cl)cc4)c23)c(OC)c1	102	-28	111	86
CN(C(=O)CSc1nnc(-c2ccccc2F)o1)C1CCCCC1	100	-1	114	88
CC(C)c1ccc(NC(=O)CCS(=O)(=O)c2ccc(Br)s2)cc1	107	11	87	75
COCCN1C(=O)c2ccc(C(=O)Nc3ccccc3)cc2C1=O	109	-79	103	100
COc1ccc(NC(=O)c2c(NC(=O)COc3ccccc3)sc3c2CCC(C)C3)cc1 (stereo not given)	107	8	106	106
CC(C)NC(=O)COCc1cc(-c2ccco2)on1	114	-15	112	107
CCCNC(=O)c1cnc(N(C)C)nc1C	107	-10	nt	nt
CCc1ccc2ncc(S(=O)(=O)c3ccccc3)c(N3CCCCC3)c2c1	102	nt	70	76
Cc1cccc(N2CCN(C(=O)c3cc4c(=O)n(C)c5ccccc5c4s3)CC2)c1C	100	-13	99	73
Cc1ccc(NC(=O)N2CC3CCCN3c3ccccc32)cc1Cl (stereo not given)	100	nt	90	91
FC(F)Oc1ccccc1/C=N/n1cnc2ccccc21	nt	-16	47	48
COc1cc(C(=O)Nc2ccc3[nH]c(=O)sc3c2)cc(OC)c1OC	107	6	114	79
COC(=O)C1=C(C)N(c2ccccc2Cl)C(=O)/C1=C\c1cccs1	96	nt	106	86
CCN(c1ccccc1C(=O)O)S(=O)(=O)c1ccc2c(c1)n(C)c(=O)n2C	99	-18	75	76
CCN(CC)CCNc1ncnc2c1sc1nc(C(C)C)c3c(c12)CCCC3	105	nt	133	92
COc1cc(NC(=O)Cn2c(=O)n(CC(=O)NCCc3ccc(OC)c(OC)c3)c(=O)c3sccc32)cc(OC)c1	102	0	115	95
CCSc1ncc2c(=O)n(CC(=O)Nc3ccc(F)c(Cl)c3)cnc2n1	106	-8	nt	nt
Cc1ccc(N=Cc2ccccc2)cc1	99	0	109	88
COc1cc2[nH]c(=O)n(Cc3ccc(C(=O)Nc4ccc(F)cc4)cc3)c(=O)c2cc1OC	100	-1	nt	nt
Cc1nn(C(=O)CC(C)C)c(C)c1S(=O)(=O)N1CCCC1	102	-27	nt	nt
Fc1ccc(-c2noc3ncnc(NCC4CCN(Cc5ccc(Cl)cc5)CC4)c23)cc1	104	nt	103	72
O=C(NC1CCCCCC1)c1ccc2c(=O)n3c(nc2c1)CCCCC3	101	nt	100	67
CC(C)NC(=O)N1CCCC(c2cccc(C(=O)NCC3CCCO3)c2)C1 (stereo not given)	110	-12	nt	nt
COc1ccccc1OCCn1c(NC(=O)c2ccccc2)nc2ccccc21	102	nt	109	88
CC1(C)CC(=O)C(C=NCCN2CCN(C(=O)NC34CC5CC(CC(C5)C3)C4)CC2)=C(O)C1	100	-18	93	85
Cc1nccn1CCCN1C(=O)OC(C)(C)C1(C)O (stereo not given)	100	-23	96	91
O=C1/C(=C/c2cc([N+](=O)[O-])cc(Br)c2O)SC(=S)N1c1ccc([N+](=O)[O-])cc1	106	-19	nt	nt
CC(=O)N1CCc2c(sc3c2c(=O)n(-c2ccc(C)cc2)c(=O)n3Cc2c(F)cccc2Cl)C1	100	-6	95	103
O=C(NC1CC1)c1ccc2cn[nH]c2c1	110&107	7&-12	103	107
CNC(=O)N1CCCC(c2cccc(C(=O)NC3CCCCC3)c2)C1 (stereo not given)	106	-27	nt	nt
O=c1c2c(-c3ccc(Cl)cc3)csc2ncn1C1CCCC1	96	0	nt	nt
COc1ccc(CNC(=O)CCc2c(C)nc3c(c2C)c(=O)n(C)c(=O)n3C)cc1	111	-8	nt	nt
Cc1ccc2c(c1)N(C(=O)CSc1nc(-c3ccccc3)[nH]c1S(=O)(=O)c1ccccc1)CCO2	101	-17	nt	nt
Cc1cccn2c(=O)c(C=Nc3ccc(Cl)cc3)c(NCCO)nc12	102	nt	77	85
O=c1c2c(nc3nc(Cc4ccccc4)[nH]n13)CCC2	101	-28	nt	nt
CN1CCOc2ccc(S(=O)(=O)Nc3cccnc3)cc21	97	4	nt	nt
CCc1cc(C(=O)O)n(C)n1	107	2	73	95
Cc1cc(COc2ccc(-c3ccccc3)cc2)no1	nt	-36	96	94
Cc1ccc(-n2cc(-c3ccccc3)c3c(N4CCC(C)CC4)ncnc32)cc1Cl	105	nt	117	91
CCc1ccccc1NC(=O)C1CCN(c2nn3c(=O)cc(C)nc3s2)CC1	105&104	-12&-19	96	84
CC1CCCN(CCCNC(=O)c2cn(C)c3ccc(S(=O)(=O)N(C)C4CCCCC4)cc3c2=O)C1 (stereo not given)	102	-38	95	95
O=C(Cc1ccccc1)Nc1ccc(Cl)c(Cl)c1	nt	2	95	110
CC(=O)NCCC(=O)Oc1c(C)ccc(C)c1C	nt	-4	105	96
CCOC(=O)N1CCN(C(=S)Nc2ccc(C)c(C)c2)CC1	nt	-14	105	77
Additional compounds
SMILES	GIV-Gai inh	HCMV NEC inh	Sa growth inh	Sa growth inh second temp
COc1cc(C)nc(OCCNS(=O)(=O)c2cc(C)ccc2C)n1	98	nt	115	80
Cc1ccc(C2CC(=O)c3c(C)nc(N4CCc5ccccc54)nc3C2)cc1 (stereo not given)	106	8	nt	nt
O=C(CCN(CCCN1CCCC1)C(=O)c1ccc(Br)cc1)N1CCNCC1	96	-27	nt	nt
CN1CCN(C(=O)c2nc(-c3nn(-c4ccc(F)cc4)c(=O)n(C)c3=O)no2)CC1	100	-117	nt	nt
CCNC(=O)c1snc(Nc2ncc(C)o2)c1N	101	-15	103	88
CCOC(=O)c1cccc(NC(=O)c2cc3cc4cc(OC)ccc4nc3s2)c1	109	-16	107	88
O=C(Cn1ncc2c3ccccc3n(Cc3ccc(Cl)cc3)c2c1=O)N1CCCCCC1	156	-22	106	83
CC(C)(C)C(=O)NCC(c1cccnc1)N1CCN(c2ccccc2)CC1 (stereo not given)	106&110	-14	97	91

Screening data (PubChem)
